Screening results: PubChem, ICCB-Longwood Screening Facility, Harvard Medical School
Sa growth inh: inhibitors of Staphylococcus aureus growth at 42 °C. AID 720641. relative growth, % (no concentration beside the values). S. aureus RN4220 growth, OD600, 20 h; active compounds read low. 0.53% of 170,000 active;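 active means growth at 42 °C up to 50% and 20 or more points under that at 30 °C, or under 10% at both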;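 further: 300 nL library stock went into each well; scaled to the means of positive and negative controls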
HCMV NEC inh: inhibitors of HCMV UL50-UL53 nuclear egress complex interaction. HTRF UL50-UL53 interaction, normalized percent inhibition. inhibition, % (concentration not given with the values). 0.15% of 190,000 active. AID 1918969;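 active means both replicates at 50% or more, plus weaker picks with an unusually low signal ratio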;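 further: stock transfer was 100 nL into about 20 µL; 0% = negative control wells and 100% = wells with untagged competitor protein; inactives centre near -12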
GIV Gai3 FP: inhibitors of GIV GBA-motif binding to rat Galpha-i3 | P08753 | Galpha-i3/FITC-GIV peptide fluorescence polarization, 90 min; active compounds read low; scaled: aluminum fluoride 0%, vehicle 100% | percent of control (FP), % (concentration not given with the values) | 0.42% of 210,000 active | AID 1224905;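 active means replicate mean at 85% of control or lower, very high polarization wells dropped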;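 further: wells of about 15 µL received 100 nL stock; the first replicate is given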
Target sequence (P08753 whole entry, looked up): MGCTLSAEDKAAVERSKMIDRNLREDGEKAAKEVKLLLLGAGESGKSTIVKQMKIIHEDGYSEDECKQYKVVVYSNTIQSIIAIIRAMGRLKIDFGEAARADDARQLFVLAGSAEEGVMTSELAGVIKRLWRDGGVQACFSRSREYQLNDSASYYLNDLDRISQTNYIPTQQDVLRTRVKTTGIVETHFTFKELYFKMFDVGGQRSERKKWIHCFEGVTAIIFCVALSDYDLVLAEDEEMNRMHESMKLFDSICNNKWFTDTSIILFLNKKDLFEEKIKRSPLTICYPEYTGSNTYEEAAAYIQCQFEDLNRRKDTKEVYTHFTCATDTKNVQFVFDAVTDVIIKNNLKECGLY
Sa growth inh second temp: further read-out of Sa growth inh, marked with its call; relative growth, %; measured here: growth at 30 °C;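 optical density after 20 h as mean of two plates; 100% = untreated growth and lower means inhibition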
* hit, by the source's call; x = no result given; & = joins results of further samples.

item | Molecule | Sa growth inh | Sa growth inh second temp | HCMV NEC inh | GIV Gai3 FP
1 | CCCc1nc2c(sc3nc4c(cc32)COC(C)(C)C4)c(=O)o1 | 100 | 89 | -19 | 92
2 | Cc1ccccc1-c1nnc(N(C(=O)C2CC2)C2CCCC2)s1 | 66 | 73 | 14 | 103
3 | O=S(=O)(Cc1ccccc1)NCc1ccco1 | 88 | 109 | 2 | 96
4 | CC(C)c1ccc(S(=O)(=O)N2CCC(N3CCN(Cc4ccccc4)C(=O)C3=O)CC2)cc1 | 80 | 89 | -4 | 104&99
5 | CSc1nnc(CNC(=O)N(c2ccccc2)c2ccccc2)n1C(C)C | 97 | 85 | -6 | 108
6 | CN(C)S(=O)(=O)c1ccc(SCCCn2c(=O)[nH]c3ccccc32)nc1 | 75 | 53 | -10 | x
7 | Cc1ccc(C)c(CSc2nnc3n(CCCOC(C)C)c(=O)c4cc(C)ccc4n23)c1 | x | x | -11 | 100
8 | CCS(=O)(=O)c1ncc(Cl)c(C(=O)N2CCN(c3ccc(OC)cc3)CC2)n1 | 67 | 37 | -1 | 103
9 | O=C(O)c1ccc2nc(-c3cc4cc(Cl)ccc4oc3=O)[nH]c2c1 | 106 | 84 | x | 103
10 | C=CCOC(=O)C1=C(C)NC(S)=C(C#N)C1c1cccnc1 (stereo not given) | x | x | -82 | 128
11 | CC(=O)N[C@@H](Cc1ccccc1)C(=O)NN | 88 | 90 | -22 | 101
12 | Cc1ccc(OCC(=O)N(c2ccc(C)cc2)S(=O)(=O)c2ccc(Cl)cc2)cc1 | 101 | 79 | -36 | 105
13 | O=C(Cn1ccn(-c2ccc(F)cc2)c(=O)c1=O)Nc1ccccc1C(F)(F)F | 91 | 96 | -18 | 97
14 | OCC1CCCN(C(=S)NCCc2ccccc2)C1 (stereo not given) | 99 | 95 | 1 | 109
15 | CCOC(=O)c1cc2sccc2n1CC(=O)OCC(=O)NCc1ccco1 | 108 | 86 | 0 | 104
16 | COc1ccc(CCNC(=O)C2CCN(Cc3nc(-c4ccc(OC)c(OC)c4)oc3C)CC2)cc1OC | 99 | 90 | -22 | 105
17 | Cc1cccc(Cl)c1NC(=O)N1CCCN(c2ccc(C(F)(F)F)cn2)CC1 | 107 | 102 | -18 | 106
18 | NC(=NC(=O)CCn1c(=O)oc2ccccc21)c1ccc(Cl)cc1 | 112 | 72 | -1 | 104
19 | COc1cc2c(=O)c(C(=O)c3ccc(C)c(C)c3)cn(Cc3ccc(F)cc3)c2cc1OC | 112 | 90 | -23 | 95
20 | Cc1c(Cl)cccc1NC(=O)Cn1nnc2sc3c(c2c1=O)CCCC3 | 96 | 97 | 11 | 98
21 | COc1ccc(CCNC(=O)CSc2cn(CCNC(=O)c3ccc(OC)c(OC)c3)c3ccccc23)cc1OC | 98 | 81 | -19 | 103
22 | O=C(c1ccc2c(c1)OCCO2)N1CCC(c2nc3ccccc3o2)CC1 | 88 | 97 | -13 | x
23 | CC(OC(=O)C1CCN(S(=O)(=O)c2cccs2)CC1)C(N)=O (stereo not given) | 81 | 89 | -19 | x
24 | Cc1ccc(CNC(=O)Cn2c(=O)ccc3cc(S(=O)(=O)N4CCC(C)CC4)ccc32)cc1 | 98 | 95 | x | 97
25 | Cn1c(=S)n(CN2CCC(c3ccccc3)CC2)c2ccccc21 | 100 | 85 | x | 98
26 | CC(CNC(=O)c1cccc(Nc2nc3ccccc3n3cnnc23)c1)c1ccccc1 (stereo not given) | 86 | 66 | x | 103
27 | O=C(Cc1ccccc1)N1CCN(S(=O)(=O)c2ccc(Br)cc2)CC1 | 90 | 90 | x | 107
28 | COc1ccc2c(CN3C(=O)NC4(CCc5ccccc54)C3=O)cc(=O)oc2c1 (stereo not given) | 89 | 62 | -23 | x
29 | O=C(NCCSc1c(-c2ccc(Br)cc2)[nH]c2ccccc12)c1ccc(S(=O)(=O)N2CCOCC2)cc1 | 96 | 90 | -23 | 104
30 | CCn1nnc2cc(C(=O)Nc3ccc(N4CCCC4)cc3)ccc21 | 72 | 96 | -25 | x
31 | COc1ccc(Nc2oc(COc3ccccc3F)nc2C#N)cc1 | 89 | 85 | -8 | 99
32 | CC(=O)NC1(c2ccccc2)CCN(C(C)=O)CC1 | 73 | 96 | 1 | 104
33 | CCC(=O)Nc1c2c(nn1C(C)(C)C)CSC2 | 104 | 95 | 9 | 104
34 | O=S(=O)(c1ccc(-c2nnc(C3CC3)o2)s1)N1CCCCCC1 | x | x | -63 | 107
35 | Cc1ccc(CNC(=O)CSc2nc3ccccc3nc2Cc2ccc(C)cc2)cc1 | 100 | 86 | x | 100
36 | O=c1cccc2n1CC1CC(C2)N(c2nc(N3CCCCC3)nc(N3CCCCC3)n2)C1 (stereo not given) | 115 | 101 | -16 | 104
37 | CC1CN(CC(=O)Nc2ncc(Cc3ccccc3F)s2)CC(C)O1 (stereo not given) | 92 | 80 | -18 | 108
38 | N#C/C(=C\c1ccoc1)S(=O)(=O)c1ccccc1 | 118 | 91 | -3 | 169
39 | O=C(CN1CCN(S(=O)(=O)c2ccc3c(c2)OCCO3)CC1)N(Cc1ccccc1)Cc1ccccc1 | 118 | 104 | -17 | x
40 | COc1ccc(C2CC(=O)N(Cc3ccc(F)cc3)C(=O)C2)cc1 | x | x | -23 | 99
41 | CCCCn1c(C(F)(F)F)nc2c(=O)oc3ccccc3c21 | 82 | 76 | x | 108
42 | CCOc1ccc(Br)cc1C1CC(=O)Nc2c1ccc(C)c2C (stereo not given) | 109 | 87 | x | 97
43 | O=C(CC1SC(=Nc2ccccc2)NC1=O)Nc1ccccc1 (stereo not given) | 96 | 94 | -5 | 105
44 | COc1ccc(N2C(=S)SC3CS(=O)(=O)CC32C)cc1 (stereo not given) | 103 | 90 | x | 100
45 | COC(=O)CS(=O)(=O)c1nc2ccccc2nc1N1CCCCC1 | 95 | 83 | -14 | 103
46 | CC(C)COc1ccc(C(=O)Nc2onc3c2CCCC3)cc1 | 101 | 92 | 0 | 104
47 | Cc1ccc2oc(=O)n(CCNC(=O)Nc3ccccc3Cl)c2c1 | 105 | 100 | -2 | 94
48 | Cc1ccc(-c2nc3n(CC(=O)NCC4CCCO4)c4c(c(=O)n3n2)CCC4)cc1 (stereo not given) | x | x | -8 | 105
49 | CCOC(=O)Cn1c2ccccc2c2ccccc21 | 117 | 85 | -4 | 95
50 | COc1ccc2c(c1)CC(C(=O)NCCCN1CCN(c3cccc(Cl)c3)CC1)CO2 (stereo not given) | 98 | 66 | x | 101
51 | O=C1Nc2ccccc2C1Cc1ccccn1 (stereo not given) | 97 | 87 | -33 | 102
52 | O=C(NC1CC1)C1C2C=CC3(O2)C1C(=O)N(C1CC1)C3C(=O)NC1CCCCC1 (stereo not given) | 94 | 109 | -6 | 98
53 | Clc1ccccc1N1CCN(Cc2nnc(-c3ccccc3)o2)CC1 | 103 | 90 | 2 | 101
54 | CCC(CO)NCc1ccc(-c2ccc(F)cc2)o1 (stereo not given) | x | x | -14 | 100
55 | C=Cc1ccc(CN2C(=O)C3CCCC3=Nc3cc(C)c(C)cc32)cc1 (stereo not given) | x | x | -8 | 109
56 | O=C(NC1CCCCC1)N1CCc2cc(S(=O)(=O)N3CCN(C4CCCCC4)CC3)ccc21 | x | x | -24 | 103
57 | COc1ccc(-c2cc(-c3ccc(C)cc3)nc(N3CCCCC3)n2)cc1 | 100 | 109 | -4 | 101
58 | CC(C)(CSc1n[nH]c(N)n1)NS(=O)(=O)c1ccc(Cl)cc1 | 85 | 93 | -9 | x
59 | CCc1ccc(-c2nc(-c3ccc(C)cc3)no2)cc1 | 84 | 76 | -15 | 100
60 | Cc1nn(-c2ccc(F)cc2)c2sc(C(=O)OCC(=O)N(C)C3CCS(=O)(=O)C3)cc12 (stereo not given) | 89 | 94 | 4 | x

As a short view, some entries already given.
item | Molecule | Sa growth inh | Sa growth inh second temp | HCMV NEC inh | GIV Gai3 FP
45 | COC(=O)CS(=O)(=O)c1nc2ccccc2nc1N1CCCCC1 | 95 | 83 | -14 | 103
46 | CC(C)COc1ccc(C(=O)Nc2onc3c2CCCC3)cc1 | 101 | 92 | 0 | 104
47 | Cc1ccc2oc(=O)n(CCNC(=O)Nc3ccccc3Cl)c2c1 | 105 | 100 | -2 | 94
48 | Cc1ccc(-c2nc3n(CC(=O)NCC4CCCO4)c4c(c(=O)n3n2)CCC4)cc1 (stereo not given) | x | x | -8 | 105
49 | CCOC(=O)Cn1c2ccccc2c2ccccc21 | 117 | 85 | -4 | 95
50 | COc1ccc2c(c1)CC(C(=O)NCCCN1CCN(c3cccc(Cl)c3)CC1)CO2 (stereo not given) | 98 | 66 | x | 101
51 | O=C1Nc2ccccc2C1Cc1ccccn1 (stereo not given) | 97 | 87 | -33 | 102
52 | O=C(NC1CC1)C1C2C=CC3(O2)C1C(=O)N(C1CC1)C3C(=O)NC1CCCCC1 (stereo not given) | 94 | 109 | -6 | 98
53 | Clc1ccccc1N1CCN(Cc2nnc(-c3ccccc3)o2)CC1 | 103 | 90 | 2 | 101
54 | CCC(CO)NCc1ccc(-c2ccc(F)cc2)o1 (stereo not given) | x | x | -14 | 100
55 | C=Cc1ccc(CN2C(=O)C3CCCC3=Nc3cc(C)c(C)cc32)cc1 (stereo not given) | x | x | -8 | 109
56 | O=C(NC1CCCCC1)N1CCc2cc(S(=O)(=O)N3CCN(C4CCCCC4)CC3)ccc21 | x | x | -24 | 103
57 | COc1ccc(-c2cc(-c3ccc(C)cc3)nc(N3CCCCC3)n2)cc1 | 100 | 109 | -4 | 101
58 | CC(C)(CSc1n[nH]c(N)n1)NS(=O)(=O)c1ccc(Cl)cc1 | 85 | 93 | -9 | x
59 | CCc1ccc(-c2nc(-c3ccc(C)cc3)no2)cc1 | 84 | 76 | -15 | 100
60 | Cc1nn(-c2ccc(F)cc2)c2sc(C(=O)OCC(=O)N(C)C3CCS(=O)(=O)C3)cc12 (stereo not given) | 89 | 94 | 4 | x

More structures:
item | Molecule | Sa growth inh | Sa growth inh second temp | HCMV NEC inh | GIV Gai3 FP
61 | Cc1ccccc1NC(=O)Nc1ccc(CN2CCCCC2)cc1 | 103 | 97 | -1 | 102
62 | O=C(O)c1cc(N2CCN(CC(=O)N3CCOCC3)CC2)ccc1NC(=O)C1CCC1 | x | x | -19 | 98
63 | O=c1[nH]c(CSCCO)nc2c1C1(CCCCC1)Cc1ccccc1-2 | 128 | 100 | -26 | 99
64 | Cc1ccccc1C(=O)Nc1sc2c(c1C(=O)N1CCCCC1)CCC(C(C)(C)C)C2 (stereo not given) | 112 | 92 | -26 | 103
65 | CC(C)=NNC(=O)CN1C(=O)NC2NC(=O)NC21 (stereo not given) | 91 | 96 | 5 | 104
66 | COc1ccc2oc(=O)sc2c1 | 50 | 57 | -12 | 101
67 | Cc1cccc(NC(=O)C2CCCN(S(=O)(=O)c3ccc4c(c3)CCCC(=O)N4)C2)c1 (stereo not given) | 98 | 76 | x | 103
68 | Cc1cccc2cc(CN(Cc3ccco3)Cc3nnnn3CCc3ccccc3)c(=O)[nH]c12 | 110 | 103 | -12 | 107
69 | O=C(CO/N=C/c1ccccc1OC(F)F)N1CCN(S(=O)(=O)c2ccccc2)CC1 | 87 | 89 | -11 | x
70 | COc1ccc(CC(=O)Nc2noc3ccccc23)cc1 | 89 | 91 | -15 | 104
71 | CCOC(=O)c1nn(-c2ccc(C)cc2)c(=O)c2c(N)scc12 | 104 | 78 | -42 | 103
72 | CC(=O)Nc1cccc(OCC(=O)N2CC(C)CC(C)C2)c1 (stereo not given) | 95 | 96 | -2 | x
73 | CN1C(=O)c2cc(C(=O)NCc3ccc(Cl)cc3)nn2CC1(C)C(=O)NC1CCCC1 (stereo not given) | x | x | -6 | 100
74 | FC(F)(F)c1ccc(-c2cccs2)nc1 | 105 | 75 | 1 | 97
75 | CN(C)c1ccc(CNC(=O)C2COc3ccccc3C2)cc1 (stereo not given) | 100 | 98 | x | 105
76 | CC(C)c1nnc(NC(=O)c2cc(-c3ccccc3)on2)s1 | x | x | 10 | 103
77 | NC(=O)c1sc(-c2ccc(Cl)cc2)cc1NC(=O)/C=C/C(=O)O | 59 | 87 | -63 | 103
78 | Cn1c(Cc2cccs2)nnc1SCCN1C(=O)c2ccccc2C1=O | 103 | 89 | -22 | x
79 | COc1ccc(NC(=O)CCN2CCCCC2)cc1 | 101 | 94 | 3 | x
80 | NC(=O)c1cc2cc(Br)ccc2oc1=Nc1cccc(C(F)(F)F)c1 | x | x | -9 | 104
81 | CC(=O)Nc1cccc(C(=O)CCC(=O)O)c1 | 111 | 87 | -25 | 101
82 | O=C(COc1cccc(NC(=O)c2ccco2)c1)c1ccccc1 | 84 | 67 | -5 | x
83 | COc1cc(NC(=O)c2sc3nc4n(c(=O)c3c2C)CCCCC4)cc(OC)c1OC | 134 | 94 | -8 | 104
84 | COC(=O)c1c(C)oc(C)c1S(=O)(=O)N1CCCC1 | 117 | 51 | -10 | 93
85 | O=S(=O)(CS(=O)(=O)Sc1ccc(Cl)cc1)Sc1ccc(Cl)cc1 | 100 | 87 | -21 | 104
86 | COc1cccc(C(=O)Nc2cccc(-c3ccc(N4CCN(C)CC4)nn3)c2)c1 | 99 | 92 | -14 | 108
87 | CC(C)CN(CC(C)C)S(=O)(=O)c1ccc(C(=O)Nc2sc3c(c2C(N)=O)CCN(C(C)C)C3)cc1 | 138 | 86 | x | 114

In a second layout: entries from further up
83) COc1cc(NC(=O)c2sc3nc4n(c(=O)c3c2C)CCCCC4)cc(OC)c1OC
  Sa growth inh = 134	Sa growth inh second temp = 94	HCMV NEC inh = -8	GIV Gai3 FP = 104
84) COC(=O)c1c(C)oc(C)c1S(=O)(=O)N1CCCC1
  Sa growth inh = 117	Sa growth inh second temp = 51	HCMV NEC inh = -10	GIV Gai3 FP = 93
